Screens deposited in PubChem by PCMD.
Calb biofilm kill: clotrimazole potentiators killing C. albicans biofilm, primary screen, 4-compound mixtures. C. albicans biofilm persisters + clotrimazole, fluorescence viability; primary screen in compound mixtures of four per well. inhibition, % at 7.6 µM. 120,000 tested, 0.02% active. AID 1242, 2008;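 active means inhibition above 30.3% in the primary screen of four-compound pools, then above 30% when the compound was retested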;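 further: compounds exposed to preformed 24 h biofilms for 48 h; the number belongs to the whole pool; some results filed as inactive read as strong as hits; inactives centre near 12; 0% = biofilm with clotrimazole alone and 100% = kill control; retested singly at about 60 µM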
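Test system: C. albicans CAF4-2 wild-type biofilms; buffer or medium: RPMI/MOPS medium, pH 7.0; schedule: 24 h biofilm formation, then 48 h compound exposure, 37 °C; detection: Alamar Blue fluorescence; measure: percent inhibition of biofilm viability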
Numbers without * were called inactive. The list is partial, so the mix of outcomes need not match the whole.

CCc1ccc(C2N3CC4([N+](=O)[O-])CN2CC([N+](=O)[O-])(C3)C4(C)C)cc1 (centres undefined)
  Calb biofilm kill = 18
COCCNC(=S)N1CCOCC1
  Calb biofilm kill = 1
Cc1cc(/C=C2\C(=N)N3N=C(C(C)C)SC3=NC2=O)c(C)n1-c1ccccc1
  Calb biofilm kill = 11
CCN1CCc2c(OCC(=O)N3CCC(C)CC3)cccc2C1=O
  Calb biofilm kill = 4
Cc1cc(C)nc(/N=C(\N)N2CCc3ccccc32)n1
  Calb biofilm kill = 7
COc1ccc(-c2cc(-c3cccs3)nc3sc(C#N)c(N)c23)cc1
  Calb biofilm kill = 7
C=CCOc1ccc(Oc2cc(C)nc(SC)n2)nn1
  Calb biofilm kill = 4
CCn1nc(C(=O)Nc2ccc(S(=O)(=O)Nc3ncccn3)cc2)c2ccccc2c1=O
  Calb biofilm kill = 8
O=C(NC(=S)Nc1ccc(S(=O)(=O)Nc2nccs2)cc1)c1cccnc1
  Calb biofilm kill = 9
COc1ccc(CCNC(=O)CSc2ccc(-c3ccco3)nn2)cc1
  Calb biofilm kill = 15

COCCn1c(SCC(=O)c2c(-c3ccccc3)n(C)c3ccccc23)nnc1-c1ccncc1
  Calb biofilm kill = 14
CCc1ccc(OCCOCC(O)CNC2CCCC2)cc1 (centres undefined)
  Calb biofilm kill = 5
CCN(CC)C(=O)CS(=O)CC(=O)Nc1cc(OCCOC)c(Cl)cc1Cl (centres undefined)
  Calb biofilm kill = 14
N#Cc1ccc(S(=O)(=O)N2CCCN(c3nc4ccc(Cl)cc4s3)CC2)cc1
  Calb biofilm kill = 15
O=C(NCc1ccc(Cl)cc1)NCc1ccc(Cl)cc1
  Calb biofilm kill = 15
O=C(O)/C=C/C(=O)Nc1ccc(OC(F)(F)Cl)cc1
  Calb biofilm kill = 10
CCOC(=O)N1CCN(C(=O)CSc2ccc3nnc(CCNC(=O)c4ccc(OC)cc4)n3n2)CC1
  Calb biofilm kill = 16
COc1ccc2cc(/C=N/NC(=O)CN(c3ccccc3C)S(=O)(=O)c3ccccc3)c(Cl)nc2c1
  Calb biofilm kill = 14
c1ccc(C2CCC3(CC2)Oc2ccccc2C2CC(c4cccnc4)=NN23)cc1 (centres undefined)
  Calb biofilm kill = 14
C=CCn1cc(/C=N/NC(=O)COc2cccc3cccnc23)c2ccccc21
  Calb biofilm kill = 11

Some of these compounds in order of molar mass, lowest first.
O=C(NCc1ccc(Cl)cc1)NCc1ccc(Cl)cc1
  Calb biofilm kill = 15
CCN(CC)C(=O)CS(=O)CC(=O)Nc1cc(OCCOC)c(Cl)cc1Cl (centres undefined)
  Calb biofilm kill = 14
COCCn1c(SCC(=O)c2c(-c3ccccc3)n(C)c3ccccc23)nnc1-c1ccncc1
  Calb biofilm kill = 14

Remaining list, next part:
COc1cc(Nc2ccc(C)cc2)c([N+](=O)[O-])nc1[N+](=O)[O-]
  Calb biofilm kill = 6
CC1(C)CC(=O)C(N=Nc2ccc(C(F)(F)F)cc2[N+](=O)[O-])=C(O)C1
  Calb biofilm kill = 16
O=C(CCS(=O)(=O)c1ccccc1)Nc1nc(-c2ccc(F)cc2)cs1
  Calb biofilm kill = 7
CCCCN(CCCC)S(=O)(=O)c1ccc(NC(=O)c2ccc([N+](=O)[O-])cc2Cl)cc1
  Calb biofilm kill = 12
CN(C)c1ccc(NC(=O)c2ccc(Cn3cc([N+](=O)[O-])cn3)cc2)cc1
  Calb biofilm kill = 13
COCC(C)NC(=S)N1CCN(c2ccccc2Cl)CC1 (centres undefined)
  Calb biofilm kill = 5
CCC(c1nnc(SCC(=O)NCCc2ccc(OC)c(OC)c2)n1Cc1ccccc1)N(C)C (centres undefined)
  Calb biofilm kill = 8
COc1ccc(C2CC(c3cccs3)=NN2C(=O)CSc2nnnn2C)cc1OC (centres undefined)
  Calb biofilm kill = -12
N#Cc1c(N)nc2c(c1-c1cccs1)CCCC2
  Calb biofilm kill = 15
CCOC(=O)c1c(N)sc(C(=O)OC)c1C
  Calb biofilm kill = 13

Cn1nc(-c2ccccc2)c(CO)c1Oc1ccc(F)cc1
  Calb biofilm kill = 15
COc1cc(CNC2CCCC2)c(Br)cc1OC1CCCC1
  Calb biofilm kill = 27
COC(=O)c1cc(N2CCN(C)CC2)nc2ccccc12
  Calb biofilm kill = 9
COc1ccc(-c2noc(CCC(=O)NCc3ccco3)n2)cc1
  Calb biofilm kill = 13
CCn1cc(C(=O)O)c(=O)c2cnc(N3CCN(C(=S)NC(=O)c4ccc(Cl)cc4)CC3)nc21
  Calb biofilm kill = 23
COc1ccc(/C=N/NC(=O)c2ccc(Cl)cc2)cc1Cn1cc(Cl)cn1
  Calb biofilm kill = 13
COc1ccc(/C=C/C(=O)Nc2ccc(C(N)=O)cc2)cc1OC
  Calb biofilm kill = 9
CCOC(=O)C1CCCN(CC(=O)NC2CC2)C1 (centres undefined)
  Calb biofilm kill = 5
Cc1nc2c(C#N)cnn2c2c1CCN2CC1CCCO1 (centres undefined)
  Calb biofilm kill = 12
O=C(CSc1ncccn1)NCc1cccc(Cl)c1
  Calb biofilm kill = 1

Cc1cnc(C(=O)Nc2nnc(SCc3c(Cl)cccc3Cl)s2)cn1
  Calb biofilm kill = 9
CCOCc1nnc(NC(=O)c2cc(OC)cc(OC)c2)s1
  Calb biofilm kill = 1
CCN1CCN(Cc2ccc(NC(=O)c3cc(NC(=O)c4ccc5n[nH]nc5c4)cc(OC)c3)cc2C(F)(F)F)CC1
  Calb biofilm kill = 18
O=C(NC1CCCc2ccccc21)C(Cc1ccccc1)NS(=O)(=O)c1cccs1 (centres undefined)
  Calb biofilm kill = 9
Cc1nc2nc[nH]n2c(=O)c1CCOC(=O)c1ccccc1F
  Calb biofilm kill = 7
CN(C(=S)NC(=O)c1ccc(Br)o1)c1ccccc1
  Calb biofilm kill = 16
COc1ccc2oc(=O)c(C(=O)NCc3ccc4c(c3)OCO4)cc2c1
  Calb biofilm kill = 19
O=C(N/N=C/c1ccc([N+](=O)[O-])o1)c1cn(-c2ccccc2)nc1-c1ccccc1
  Calb biofilm kill = 16
CCCCNC(=O)c1cc2cc(OC)ccc2[nH]1
  Calb biofilm kill = 13
C/C(=N\NS(=O)(=O)c1ccccc1)c1ccc2c(c1)OCCO2
  Calb biofilm kill = 23

O=C(Cc1ccccc1)NC(NC(=O)Cc1ccccc1)c1cccc([N+](=O)[O-])c1
  Calb biofilm kill = 10
Cn1nnnc1SCC(=O)C(C)(C)C
  Calb biofilm kill = 7
C/C(=N\OCc1nc2ccccc2c(=O)n1/N=C/c1cc([N+](=O)[O-])ccc1O)c1ccccc1
  Calb biofilm kill = 10
CC1CCCCN1CCCNC(=O)c1cc(Br)c(Br)[nH]1 (centres undefined)
  Calb biofilm kill = 9
Cc1ccc(-c2nnn(CC(=O)N(Cc3ccco3)C(C(=O)NC3CCCC3)c3cccs3)n2)o1 (centres undefined)
  Calb biofilm kill = -5
CC1=CC2=NC(=O)/C(=C\c3cccn3CCOc3ccc(C)c(C)c3)C(=N)N2O1
  Calb biofilm kill = 10
Cc1ccccc1Nc1nc(N)nc(CSc2n[nH]c(N)n2)n1
  Calb biofilm kill = 12
CCn1cc([N+](=O)[O-])c(C(=O)N2N=C(c3ccc4ccccc4c3)CC2c2cc(Br)ccc2O)n1 (centres undefined)
  Calb biofilm kill = 9
COc1ccc(/C=N/n2cnnc2)cc1Cn1nc(C)c([N+](=O)[O-])c1C
  Calb biofilm kill = 8
COc1ccc(NC(=O)CN(C)CC(=O)Nc2ccccc2SC)cc1Cl
  Calb biofilm kill = 17

COc1ccc(-n2c(C)nc3cc(C(=O)NCc4ccc5c(c4)OCO5)ccc32)cc1
  Calb biofilm kill = 9
CCSc1nnc(NC(=O)CSc2nnc(CNC(=O)c3ccccc3F)o2)s1
  Calb biofilm kill = 5
CCOC(=O)N1CCN(C(=O)COc2cccc3c2CCN(Cc2ccccc2F)C3=O)CC1
  Calb biofilm kill = 11
CCN(CC)CC(O)CCCCCCCCC(=O)OC (centres undefined)
  Calb biofilm kill = -13
C/C=C(/C(=C/C)c1ccc(O)cc1)c1ccc(O)cc1
  Calb biofilm kill = 8
NC(=O)c1ccccc1N/C=C/C(=O)c1cccs1
  Calb biofilm kill = 13
CCO[C@@H]1OC(C(=O)NC2CC2)=C[C@H](c2ccc(Br)cc2)[C@H]1CCCO
  Calb biofilm kill = 14
Cc1ccc(C(=O)Cn2c(-c3ccccc3)noc2=O)cc1
  Calb biofilm kill = 15
CC(=O)c1cc2c(cc1NC(=O)CSc1nc3ccc(C)cc3[nH]1)OCO2
  Calb biofilm kill = 4
Cc1cc(C)c2c(NC(=S)NC(=O)c3ccccc3)n[nH]c2n1
  Calb biofilm kill = -6

Some of the entries so far, as tab-separated lines.
SMILES	Calb biofilm kill
CCOC(=O)N1CCN(C(=O)COc2cccc3c2CCN(Cc2ccccc2F)C3=O)CC1	11
COc1ccc(-n2c(C)nc3cc(C(=O)NCc4ccc5c(c4)OCO5)ccc32)cc1	9

The results go on:
Cn1c(=O)c2c(nc(SCc3ccccc3)n2Cc2ccc(Cl)cc2)n(C)c1=O
  Calb biofilm kill = 14
Cc1c(C(=O)N2CCCC2)sc(NC(=O)c2ccc(Cl)cc2)c1C#N
  Calb biofilm kill = 8
COc1cc(/C=C/C(=O)N2CCN(c3n[nH]c(=O)[nH]c3=O)CC2)cc(OC)c1OC
  Calb biofilm kill = 8
CCC(C(=O)OC)n1c(-c2ccccc2)nc2ccccc2c1=O (centres undefined)
  Calb biofilm kill = 12
CC12CCC(c3c1nc1ccccc1[n+]3[O-])C2(C)C (centres undefined)
  Calb biofilm kill = 9
COC(=O)CS(=O)(=O)c1cccc2cccnc12
  Calb biofilm kill = 19
CCN(CC)C(=O)CCCC(=O)N(CC)CC
  Calb biofilm kill = 7
S=C(Nc1ccc2c(c1)OCO2)N1CCN(Cc2ccco2)CC1
  Calb biofilm kill = 9
O=[N+]([O-])/C(N=Nc1ccccc1)=N\Nc1ccccc1
  Calb biofilm kill = 14
Cn1c(=O)n(C)c2cc(S(=O)(=O)Nc3ccccc3)ccc21
  Calb biofilm kill = 13

Overlap with the part before: 5 entries, then new ones.
COC(=O)CS(=O)(=O)c1cccc2cccnc12
  Calb biofilm kill = 19
CCN(CC)C(=O)CCCC(=O)N(CC)CC
  Calb biofilm kill = 7
S=C(Nc1ccc2c(c1)OCO2)N1CCN(Cc2ccco2)CC1
  Calb biofilm kill = 9
O=[N+]([O-])/C(N=Nc1ccccc1)=N\Nc1ccccc1
  Calb biofilm kill = 14
Cn1c(=O)n(C)c2cc(S(=O)(=O)Nc3ccccc3)ccc21
  Calb biofilm kill = 13
COc1ccccc1N1CC(C(=O)Nc2ccc3c(c2)OCO3)CC1=O (centres undefined)
  Calb biofilm kill = 10
c1ccc(C(c2nnnn2C2CCCC2)N2CCN(c3ccccc3)CC2)cc1 (centres undefined)
  Calb biofilm kill = 15
COc1ccc(OC(=O)CCN2C(=O)C3C4C=CC(C4)C3C2=O)cc1 (centres undefined)
  Calb biofilm kill = 16
Fc1cccc2sc(Nc3nc4c(F)cccc4s3)nc12
  Calb biofilm kill = 8
Cc1c(C(=O)NCC2CCCO2)oc2ccc(S(=O)(=O)N3CCCCC3)cc12 (centres undefined)
  Calb biofilm kill = -4
COc1ccc(NC(=O)C2CCCN2C(=O)NCc2ccccc2)cc1 (centres undefined)
  Calb biofilm kill = -1
COC(=O)c1sc(NC(=O)c2ccco2)c(C#N)c1C
  Calb biofilm kill = 22
c1ccc(Nc2scc(-c3ccccc3)[n+]2Cc2ccco2)cc1
  Calb biofilm kill = 6
NC(=O)C1CCN(Cc2nc3c(Br)cc(Br)cc3c(=O)[nH]2)CC1
  Calb biofilm kill = 19
CCOC(=O)C1C(c2cccc([N+](=O)[O-])c2)C2C(=O)NN=C2CC1(C)O (centres undefined)
  Calb biofilm kill = 15

O=C(COc1ccccc1)NNC(=O)c1cccs1
  Calb biofilm kill = 4
CN(C(=O)CSc1nnc(-c2cccs2)o1)C1CCS(=O)(=O)C1 (centres undefined)
  Calb biofilm kill = 4
COc1cc(CCC(C)=O)ccc1OC(=O)c1c(F)cccc1Cl
  Calb biofilm kill = 25
CCOC(=O)c1cn[nH]c1NC(=S)Nc1ccc(Cl)cc1
  Calb biofilm kill = 12
O=C(Cn1cccc1C(=O)c1ccccc1)NCCCN1CCc2ccccc2C1
  Calb biofilm kill = 3
O=C(Nc1ccccc1N1CCN(c2ccccc2)CC1)C12CC3CC(CC(C3)C1)C2
  Calb biofilm kill = 23
NNC(=O)CCN1CCCCC1
  Calb biofilm kill = 3
O=C(Nc1cc(S(=O)(=O)Nc2ccc(Cl)cc2)ccc1N1CCCCC1)c1ccc(F)cc1Cl
  Calb biofilm kill = 7
CCN(CC)c1ccc(NC(=S)Nc2ccc(F)cc2)cc1
  Calb biofilm kill = 38
COc1ccccc1CNC(=O)Cc1ccc(C)cc1
  Calb biofilm kill = 16

Cc1cc(NC(=O)CSc2nc(-c3ccccc3Cl)nc3c2c(=O)n(C)c(=O)n3C)no1
  Calb biofilm kill = 10
Cc1ccc(N=Nc2c(N)[nH]n3c(=O)cc(C)nc23)cc1
  Calb biofilm kill = 10
COc1cc(C(CC(=O)N2CCCC2)c2c(OC)cc(OC)c3c(-c4ccccc4)cc(=O)oc23)cc(OC)c1OC (centres undefined)
  Calb biofilm kill = 14
CN(C)/N=C/c1ccc([N+](=O)[O-])cc1[N+](=O)[O-]
  Calb biofilm kill = 15
O=C(CC1S/C(=N/N=C/c2c[nH]c3ccccc23)NC1=O)Nc1ccccc1 (centres undefined)
  Calb biofilm kill = 14

Looked up above:
Calb biofilm kill result of CCN1CCc2c(OCC(=O)N3CCC(C)CC3)cccc2C1=O is entered as 4
Calb biofilm kill result of Cc1nc2nc[nH]n2c(=O)c1CCOC(=O)c1ccccc1F is entered as 7
Calb biofilm kill result of c1ccc(C2CCC3(CC2)Oc2ccccc2C2CC(c4cccnc4)=NN23)cc1 (centres undefined) is entered as 14
Calb biofilm kill result of COc1ccc2oc(=O)c(C(=O)NCc3ccc4c(c3)OCO4)cc2c1 is entered as 19
